High-throughput results deposited in PubChem by National Center for Advancing Translational Sciences (NCATS).
TRPML1 ag – agonists of human TRPML1 channel | TRPML1-expressing cells, Ca2+ dye fluorescence, FDSS; host cell line not named in the record; reference of the full effect not given here | Q9GZU1 | activation, % (test concentration not listed) | AID 624414 | actives 0.12% (n = 410,000); in the data active = activation above about 50%; inconclusive = about 30% to 50%; inactive = below about 30%; also: 0% is about no effect; the text of the record puts the active cut at 80%
Target sequence (Q9GZU1 whole entry, looked up): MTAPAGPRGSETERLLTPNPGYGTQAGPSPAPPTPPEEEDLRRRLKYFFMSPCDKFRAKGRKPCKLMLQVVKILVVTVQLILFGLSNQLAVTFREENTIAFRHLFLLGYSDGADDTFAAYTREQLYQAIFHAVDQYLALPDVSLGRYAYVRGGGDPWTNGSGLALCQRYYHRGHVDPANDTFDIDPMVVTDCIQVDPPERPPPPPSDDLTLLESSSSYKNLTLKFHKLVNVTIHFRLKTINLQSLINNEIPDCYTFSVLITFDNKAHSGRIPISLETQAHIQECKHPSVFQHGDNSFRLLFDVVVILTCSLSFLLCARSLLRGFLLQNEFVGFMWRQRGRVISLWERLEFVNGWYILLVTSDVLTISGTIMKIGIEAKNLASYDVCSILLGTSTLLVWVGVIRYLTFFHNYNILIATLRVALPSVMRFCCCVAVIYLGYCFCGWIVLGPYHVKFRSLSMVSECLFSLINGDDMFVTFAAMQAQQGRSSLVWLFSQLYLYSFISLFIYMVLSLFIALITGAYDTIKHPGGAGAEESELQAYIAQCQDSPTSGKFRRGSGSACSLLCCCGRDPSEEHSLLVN
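Agonist activity was taken from a 110 s kinetic Ca2+ dye read on the FDSS after pinning compounds onto TRPML1-DL cells. The cells were seeded at 1,500/well with Tet inducer, incubated about 16 h, then dye-loaded at room temperature.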
PINK1 modulator – PINK1 expression modulation; actives 0.2% (n = 410,000); Potency, µM (series often up to 76.6 µM), for the others: at the highest dose activation (PINK1 increase), most hits filed as activators; PINK1 immunofluorescence, high-content cytometry, 24 h; active = well fitted activation curve with a large enough effect; inconclusive = small, poorly fitted or top-dose-only effect; inactive = flat fitted curve, though single readings scatter; cell line not stated here;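 also: potency is read from the fitted curve at half-maximal effect; % of control where 0% means no effect; nearly all actives have a fitted effect of over 65% in size; a mitochondrial uncoupler was the plate control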
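PINK1 protein level read as immunofluorescence by microplate cytometer in a fixed, stained stable cell line after 24 h exposure to five compound concentrations, with CCCP as control.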
CtBP-E1A blk – inhibitors of CtBP/E1A interaction. AID 651724. AlphaScreen GST-E1A/His-CtBP binding, 1536-well; stronger effect = lower value; control for the full effect not named in the record. actives 0.49% (n = 340,000). activity change, % (test concentration not listed); in the data active means activity change below about -65%; inconclusive means about -30% to -65%; inactive means above about -30%; also: % is scaled to controls: 0 for no effect and ±100 for the full control effect; compound concentration not given in the record
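Homogeneous bead-based format: GST-tagged E1A captured on glutathione donor beads, His-tagged CtBP on nickel acceptor beads; compounds precede bead addition by 2 h at 37 °C.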
Six1-Eya2 blk – blocks human Six1 binding to Eya2 | Q15475+O00167 | actives 0.56% (n = 360,000) | activity change, % (no concentration beside the values) | AlphaScreen GST-Six1/His-Eya2 binding, biochemical; stronger effect = lower value; control for the full effect not named in the record; in the data active = activity change below about -65%; inconclusive = about -30% to -65%; inactive = above about -30%; also: % is scaled to controls: 0 for no effect and ±100 for the full control effect; compound concentration not given in the record
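Homogeneous AlphaScreen proximity assay pairing GST-Six1 with His-tagged Eya2 (added as 5X mix: 250 nM and 500 nM) in 50 mM Tris pH 8.0, 300 mM NaCl, 1 mM TCEP. Glutathione donor and nickel acceptor beads; 1 h, 37 °C, dark.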
D2 agonist – agonists of human D2 dopamine receptor (beta-arrestin) | actives 0.084% (n = 360,000) | activation, % (no concentration beside the values) | P14416 | DiscoveRx PathHunter D2 beta-arrestin, luminescence, 90 min; 100% = 57 uM dopamine signal; in the data active = activation above about 40%; inconclusive = about 15% to 40%; inactive = below about 15%; also: compound concentration not given in the record; the text of the record calls up to 30% inactive
Target sequence (P14416 whole entry, looked up): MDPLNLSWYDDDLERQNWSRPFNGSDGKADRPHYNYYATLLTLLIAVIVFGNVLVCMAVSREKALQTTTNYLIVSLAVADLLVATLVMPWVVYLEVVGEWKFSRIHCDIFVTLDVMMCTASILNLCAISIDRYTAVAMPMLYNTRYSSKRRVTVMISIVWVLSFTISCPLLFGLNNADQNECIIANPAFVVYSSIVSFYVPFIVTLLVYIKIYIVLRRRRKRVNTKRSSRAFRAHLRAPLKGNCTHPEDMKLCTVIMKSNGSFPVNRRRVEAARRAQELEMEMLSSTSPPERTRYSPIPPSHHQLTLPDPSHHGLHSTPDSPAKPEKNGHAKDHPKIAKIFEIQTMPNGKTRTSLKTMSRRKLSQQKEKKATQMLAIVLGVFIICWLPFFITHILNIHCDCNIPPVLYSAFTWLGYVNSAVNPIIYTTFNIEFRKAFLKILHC
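DiscoveRx PathHunter D2 beta-arrestin cells (2,100/well) attached overnight, then compound-stimulated 90 min at 37 C in HBSS/10 mM HEPES/0.1% Tween-20 buffer; beta-galactosidase complementation read by luminescence after 1 h at ambient temperature. Dopamine 57 uM final (EC100) as control.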
TRPML1 inh – blocks the human TRPML1 channel | Q9GZU1 | TRPML1-inducible cells, Ca2+ dye fluorescence, FDSS; stronger effect = lower value; inhibition of EC80 agonist-evoked calcium signal | activity change, negative = inhibition, % (no concentration beside the values) | actives 0.02% (n = 390,000); in the data active means activity change below about -50%; inconclusive means about -30% to -50%; inactive means above about -30%;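 also: stimulus is agonist 54-4 at its EC80 concentration; % is scaled to controls: 0 for no effect and ±100 for the full control effect; compound concentration not given in the record; the text of the record puts the active cut at -80%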
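Tet-induced TRPML1-DL cells loaded with Ca8 no-wash calcium dye were read kinetically on FDSS. Compound addition was followed by EC80 agonist 54-4 (4 uM final); inhibition was read over 110 s.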
An asterisk follows results filed as active; ? = inconclusive; / = not tested or not shown; & = joins results of further samples; [ ] = another dose, or the depositor's remark.

SMILES	TRPML1 ag	PINK1 modulator	CtBP-E1A blk	Six1-Eya2 blk	D2 agonist	TRPML1 inh
CCOC(=O)C1CCN(C(=O)c2sc3ncn(CC(=O)N4CCCCC4)c(=O)c3c2C)CC1	-0.5	1.6%	5.6	-1.8	-3.0	-10.5
COc1ccc(NC(=O)c2cc(C3CCCCN3C(=O)OCc3ccccc3)on2)c(C)c1 (stereo not given)	-0.6	0.6%	0.7	0.5	-1.4	/
COc1ccc(-c2c(C)nn3c(N4CCC(C(=O)N5CCCCC5)CC4)cc(C)nc23)cc1OC	-0.3	-0.1%	-8.1	7.8	2.8	11.8
Cc1nn(-c2ccccc2)c(C)c1C1C(C#N)=C(N)Oc2n[nH]c(C)c21 (stereo not given)	-0.9	1.5%	9.7	-0.2	1.7	0.9
Cc1cc(C)c(C(=O)COC(=O)c2cccnc2Cl)c(C)c1	-0.9	-0.4%	14.8	8.2	3.0	-2.4
CS(=O)(=O)N(CCC#N)Cc1ccc(C=O)o1	1.3	-1.5%	4.7	9.5	0.7	25.3
COc1ccc(CNC(=O)Cn2nc(Cc3cccnc3)c3ccccc3c2=O)cc1	0.0	1.7%	1.0	0.5	-4.1	1.1
CCCN(C(=O)c1nc2nccc(C)n2n1)c1c(N)n(Cc2ccccc2)c(=O)[nH]c1=O	0.0	-1.1%	/	-4.9	-2.9	-17.8
O=C(NCc1cccs1)c1csc(COCCO)n1	-0.1	3.0%	8.8	5.8	-2.1	/
Cc1ccc(OCCCC(=O)N2CCOCC2)c(C)c1	-1.4	-1.5%	1.3	4.3	-3.8	2.5
CC(=O)NC1=NC(=O)CS1	-0.2	9.4%[38.3 µM]	3.0	1.4	3.1	-0.9
Cc1nc(N2CCNCC2)c2c3c(sc2n1)CCCC3	-0.4	0.7%	/	16.0	-1.5	-0.7
CCc1ccc(CN(C)Cc2c(C(=O)N3CCOCC3)nc3c(C)cccn23)nc1	-0.4	-0.7%	-7.0	-5.7	-1.6	-3.0
COc1cccc(-c2nc(NCCN3CCOCC3)c3ccccc3n2)c1O	0.5	/	?	?	-0.8	-15.1
Cc1ccc(Cn2cc(CN3CC(N4CCN(C)CC4)CS3(=O)=O)nn2)cc1 (stereo not given)	-0.9	-1.3%	7.0	2.7	/	/
Cc1nnc(NC(=O)CC(C)c2ccccc2)s1 (stereo not given)	1.1	2.0%	11.5	1.1	-1.1	-8.6
COc1ccc(CCNC(=S)c2ccccc2)cc1OC	2.3	-1.6%	1.3	-1.1	6.8	-1.3
N#CCCN(NC(=O)OCc1ccccc1)C(=O)OCc1ccccc1	0.6	2.3%	4.9	-0.1	-4.2	-0.6
CN1C(=O)[C@H]2[C@@H](/C=C/c3ccccc3)N3C(=O)CN(Cc4ccc(-c5ccccc5)cc4)C(=O)[C@@]3(Cc3ccccc3)[C@H]2C1=O	-0.1	-1.5%	-0.8	-6.8	0.3	3.9
COc1cccc(CC(=O)Nc2c(C(=O)N3CCN(c4ccccc4)CC3)oc3ccccc23)c1	0.4	2.5%	/	/	/	-7.3
CC(C)N(C)c1ncnc2c1ncn2[C@H]1CN(Cc2ccc3c(c2)OCO3)C[C@@H](CO)O1	0.0	2.2%	0.0	5.4	10.7	/
Cc1ccc(NC(=S)NN(C)c2nc(C)cnc2C)cc1	0.7	-1.8%	2.3	12.4	-2.4	15.4
COc1ccc(C2/C=C\CN(C(=O)C3CC3)CC(=O)N2Cc2ccc(F)cc2)cc1 (stereo not given)	0.8&0.1	0.4%	-3.4	0.6	-4.8	-4.3&-1.1
Cc1ccc(C)c(Cc2c(C)nc3c(C(=O)N4CCOCC4)cnn3c2C)c1	0.1	-0.1%[38.3 µM]	40.0	15.7	-0.5	-8.8
COC(=O)CC1COc2ccccc2N1C(=O)c1cc(OC)c(OC)c(OC)c1 (stereo not given)	1.6	3.5%	/	-7.8	0.5	-12.1
CCOc1cccc2c1OC1(C)CC2NC(=O)N1c1cccc(F)c1 (stereo not given)	0.3	-3.1%	-0.6	5.8	2.3	10.9
CSc1nc(=O)c2c(n1C)NC(=O)CC2c1cc(F)cc(F)c1 (stereo not given)	0.2	-0.4%	/	/	/	-8.8
CCOC(=O)C(CN1CCCC1)c1ccccc1 (stereo not given)	-0.6	-0.8%	1.1	2.7	-2.4	0.7
COc1ccc(OC)c(C2C(C(=O)Nc3nc4ccccc4s3)=C(C)NC3=C2C(=O)CCC3)c1 (stereo not given)	0.9	14.2%	-1.4	6.8	2.5	3.7
CS(=O)(=O)Nc1ccc(C2=NN(C(=O)c3ccco3)C(c3ccc(F)cc3)C2)cc1 (stereo not given)	0.7	-1.2%	?	-11.2	0.4	18.6
CC1Cn2c(nnc2-c2ccccc2O)S1 (stereo not given)	1.4	-2.2%	-26.1	-0.4	-1.6	-3.7
O=C(CN1CCOCC1)Nc1c(C(=O)C2CC2)oc2ccccc12	1.3	0.3%	/	6.9	-8.2	-0.4
CC(=O)Nc1ccc(NC(=O)CSc2nccn2C)cc1	2.0	0.5%	/	/	/	-11.1
Cn1nnnc1SCCNC(=O)C1CCC(=O)N(CCc2ccccc2)C1 (stereo not given)	-0.5	1.6%	7.9	3.1	-2.0	-8.0
CCOC(=O)C(/C=C(\C#N)C(=O)OCC)=C(/N)N1CCN(c2ccccc2)CC1	-0.7	1.1%	-4.3	-1.8	-3.5	3.8
Cc1c(NC(=O)C(c2ccccc2)c2ccccc2)cccc1C(=O)O	0.4	0.3%	2.1	4.3	-1.7	20.0
CS(=O)(=O)Nc1ccccc1-c1cccc2nccn12	-0.4	0.5%	-6.1	-16.2	-0.5	/
Cc1ccc(CNC(=O)C2CCN(S(=O)(=O)c3c(C)noc3/C=C/N(C)C)CC2)cc1	1.3	0.7%	3.2	-7.3	-5.8	-10.9
Cc1ccc(CN(C)C(=O)CCc2c[nH]c3ccccc23)o1	0.7	-0.8%	-14.2	-6.9	-5.2	12.9
CC1(C(=O)NCC(F)(F)F)CCN1C(=O)C1(c2ccccc2)CC1 (stereo not given)	-0.6	2.1%	-4.6	-10.3	-2.8	/
Cc1c(CNC2CCC(C)CC2)c(C(=O)O)c(C)n1Cc1ccc(Cl)cc1 (stereo not given)	-0.9	-1.0%	/	/	/	-1.3
CC(=O)Nc1ccc(C(=O)CSc2nnc(Cc3ccccc3)o2)cc1	2.6	4.3%[38.3 µM]	2.5	-0.7	-0.3	-4.7
COc1cc(/C=N/Nc2ccc(Cl)c(C(=O)O)c2)ccc1OCC(=O)N1C(C)CCCC1C (stereo not given)	-1.1	0.4%	-0.8	-4.9	-0.2	-6.5
COc1ccc(CCC(=O)OCC(=O)NC2CCCC2)cc1OC	0.1	-1.6%	5.7	2.6	0.4	3.2
N#Cc1c(N)nc2c(c1N)CC(=O)N2c1ccccc1-c1ccccc1	0.9	3.6%	-2.2	-9.4	1.4	6.0
Cn1ncc(Cl)c1C(=O)Nc1ccncc1	-0.7	1.9%	-0.9	5.2	-2.7	-2.8
CCNC(=O)N(C)[C@H]1C[C@H]2c3[nH]c4ccccc4c3CCN2C[C@H]1[C@H](C)O	0.5	-0.8%	1.6	-2.4	-2.3	/
CCC(=O)NC(c1ccccc1Cl)c1c(O)ccc2ccccc12 (stereo not given)	1.5	-1.4%	10.6	1.0	-2.2	8.5
CCOC(=O)c1cc(S(=O)(=O)NCc2ccc3c(c2)OCO3)cn1C	-1.5	1.4%	1.3	-2.4	-1.1	-7.1
COc1ccc([N+](=O)[O-])cc1NS(=O)(=O)c1ccccc1	0.4	2.6%	-1.0	9.6	-6.4	14.7
COc1ccc(-n2c(C)nc3c(cnn3-c3ccccc3)c2=O)cc1	2.3	?	7.5	-0.8	1.4	28.6
Cn1c(=O)c2c(-c3ccc(Br)cc3)n(Cc3ccc(F)cc3)cc2n(C)c1=O	-0.1	-1.1%	/	/	/	38.8
CCc1cc(C(=O)OC)c(NC(=O)CN2CCN(C(=O)c3ccco3)CC2)s1	0.3	1.1%	-5.4	-5.6	-2.5	-16.4
Cc1ccc(NC(=O)c2cccc(OC(F)F)c2)c(OC(F)F)c1	0.8	1.7%	11.7	9.4	-0.1	-0.6
O=C(NCc1cccs1)c1cccc(N2CCCC2=O)c1	-0.4	1.3%	2.6	-0.9	-2.4	0.9
O=C(c1ccco1)N1CCN(C(=O)C2CCN(S(=O)(=O)Cc3ccccc3)CC2)CC1	-0.5	-0.4%	2.5	22.6	-3.3	17.4
O=C(COCc1cc(-c2ccco2)on1)Nc1cccc(O)c1	0.2	0.3%	/	/	/	11.9
O=C(Nc1ccccc1)c1ccc(NC(=O)C2CC2)cc1	1.6	8.8%	1.9	-0.4	2.7	-9.5
CCn1c(C)c(C(C)=O)c(NCc2ccccc2)nc1=S	6.0	1.2%[38.3 µM]	-6.0	0.1	0.4	1.5
CC(C)(C)NC(=O)c1cccc(NC(=O)c2ccc3c(c2)C(=O)N(C(C)(C)C)C3=O)c1	1.6	5.5%	1.1	0.7	6.6	10.4

Filtered by structure: those above containing an NH in an aromatic ring
SMILES	TRPML1 ag	PINK1 modulator	CtBP-E1A blk	Six1-Eya2 blk	D2 agonist	TRPML1 inh
Cc1nn(-c2ccccc2)c(C)c1C1C(C#N)=C(N)Oc2n[nH]c(C)c21 (stereo not given)	-0.9	1.5%	9.7	-0.2	1.7	0.9
CCCN(C(=O)c1nc2nccc(C)n2n1)c1c(N)n(Cc2ccccc2)c(=O)[nH]c1=O	0.0	-1.1%	/	-4.9	-2.9	-17.8
Cc1ccc(CN(C)C(=O)CCc2c[nH]c3ccccc23)o1	0.7	-0.8%	-14.2	-6.9	-5.2	12.9
CCNC(=O)N(C)[C@H]1C[C@H]2c3[nH]c4ccccc4c3CCN2C[C@H]1[C@H](C)O	0.5	-0.8%	1.6	-2.4	-2.3	/

Next section
SMILES	TRPML1 ag	PINK1 modulator	CtBP-E1A blk	Six1-Eya2 blk	D2 agonist	TRPML1 inh
CCOc1ccc(N2CC(NC(=O)c3ccc(S(=O)(=O)N4CCOCC4)cc3)CC2=O)cc1 (stereo not given)	0.2	0.6%	/	/	/	-15.1
O=S1(=O)N=C(Oc2ccccc2)c2ccccc21	-0.1	3.1%	-1.9	6.7	-1.2	4.1
O=C(COC(=O)/C=C/c1nc2ccccc2s1)Nc1cccc2ccccc12	-0.3	-0.2%	9.4	1.1	-0.9	11.9
O=C(COc1ccc(Br)cc1CO)Nc1ccccc1F	1.4	-2.5%	-0.4	17.1	4.7	2.8
CC1=NN(C(C#N)c2ccccc2C)C(C)(C)C1 (stereo not given)	-0.1	-1.9%	8.2	6.4	-3.2	-1.9
COC(=O)c1[nH]c2ccc(Cl)cc2c1NC(=O)CN1CCC(C(N)=O)CC1	0.1	0.9%	-13.9	-15.9	-4.7	8.3
O=C(O)c1cccc2c1C(=O)c1cc([N+](=O)[O-])ccc1-2	0.6	-6.5%	-7.5	0.0	5.1	27.8
Cc1cccn2c(=O)c3cc(C(=O)NCCN4CCOCC4)n(C)c3nc12	0.0	1.9%	-2.8	-1.4	-0.3	8.6
